Assay outcomes as filed in PubChem BioAssay.
DUX4 inh = inhibitors of DUX4-driven ZSCAN4 reporter expression, primary screen, 293T cells, Gaussia and Italica luciferase; 293T-iDUX4 ZSCAN4-Gaussia luciferase reporter, 24 h; hits give low values; activity change, negative = inhibition, % (test concentration not listed); 37,000 tested, 0.8% active; AID 1224904, 2016;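 active = -10% or lower and over 25 points stronger than a control reporter; inconclusive = -10% or lower with a smaller gap; inactive = above -10%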;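 note: 0% = median of neutral control wells and -100% = median of positive control wells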
DUX4 inh difference = second read-out of DUX4 inh, no call of its own (marks repeat the call); Gaussia minus Italica difference, %; measured here: selective DUX4 reporter inhibition;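 worked out from the two reporters; negative = selective loss of the DUX4 reporter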
DUX4 inh control = further read-out of DUX4 inh, marked with its call; activity change, negative = inhibition, %; measured here: Italica tet-on control reporter;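 0 = neutral control and -100 = positive control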
* hit, by the source's call; ? = inconclusive; . = no result given. Some of the compounds tested; count on the stated rates, not on these rows.

SMILES	DUX4 inh	DUX4 inh difference	DUX4 inh control
O=C(C[C@H]1C[C@H]2c3cc(NS(=O)(=O)c4ccccc4)ccc3O[C@H]2[C@H](CO)O1)N1CCOCC1	15	13	1.9
COc1cccc(C(=O)Nc2ccc3c(c2)C(=O)N(C)[C@H]2CC[C@H](CC(=O)NCc4ccccc4F)O[C@@H]2CO3)c1	-1	4	-4.6
COc1cccc(C#Cc2ccc3c(c2)[C@@H]2[C@@H](CCN2C(=O)c2ccc(F)cc2)[C@@H](CO)N3)c1	6	-9	15
O=C(NCCCN1CCOCC1)[C@H]1[C@H](CO)[C@H]2Cn3c(cccc3=O)[C@@H]1N2C(=O)C1CCCC1	9	10	-1.5
C[C@@H]1CN([C@H](C)CO)C(=O)c2c(c3ccccc3n2C)-c2ccccc2CO[C@@H]1CN(C)S(=O)(=O)c1ccc(C(F)(F)F)cc1	0	0	-0.1
COc1ccc(S(=O)(=O)N2C[C@@H](O)COC[C@@H]3O[C@H](CC(=O)N[C@@H]4CCN(Cc5ccccc5)C4)CC[C@H]32)cc1	-1	-5	3.6
COc1ccccc1C#Cc1ccc([C@H]2[C@H]3CN(CCC(F)(F)F)CCCCN3[C@H]2CO)cc1	-8	1	-8.8
O=C(c1ccc2c(c1)OCO2)N1C[C@@H]2[C@H](c3ccccc31)[C@@H](CO)N2C(=O)CC1CC1	0	-3	2.7
N#C[C@@H]1[C@H](c2ccc(-c3ccccc3F)cc2)[C@H](CO)N1C(=O)C1CCOCC1	1	0	0.3
O=C(CN1CCOCC1)NCC[C@H]1CC[C@H](NS(=O)(=O)c2ccc(Cl)cc2)[C@H](CO)O1	7	5	2.5
O=C(C1CCCCC1)N1[C@@H](CO)[C@@H](c2ccccc2)C12CN(Cc1ccc(F)cc1)C2	?	.	.
C[C@H](CO)N1C[C@H](C)[C@@H](CN(C)C(=O)NC2CCCCC2)Oc2ccc(NS(=O)(=O)c3cn(C)cn3)cc2CC1=O	-3	-1	-2.7
CO[C@H]1CN(C)C(=O)c2ccc(NC(=O)c3cnccn3)cc2OC[C@H](C)N(C(=O)C2CC2)C[C@@H]1C	-6	-7	1.3
COCC#Cc1cnc2c(c1)C(=O)N([C@@H](C)CO)C[C@@H](C)[C@@H](CN(C)Cc1ccc(-c3ccccc3)cc1)O2	4	4	-0.1
Cc1ccc(S(=O)(=O)Nc2ccc3c(c2)C(=O)N([C@H](C)CO)C[C@H](C)[C@H](CN(C)Cc2ccc4c(c2)OCO4)OCCCC[C@H](C)O3)cc1	-1	0	-0.9
COc1cccc(S(=O)(=O)N2CCCCN3[C@@H](CO)[C@H](c4ccc(-c5cccnc5)cc4)[C@@H]3C2)c1	-4	0	-3.4
CCCN1[C@@H]2c3ccc(/C=C/c4ccccc4)c(=O)n3C[C@@H]2[C@@H](CO)[C@@H]1C(=O)NCc1ccncn1	-6	-3	-3.5
Cc1noc(C)c1NC(=O)N1C[C@@H](O)COC[C@H]2O[C@@H](CC(=O)N[C@H]3CCN(Cc4ccccc4)C3)CC[C@@H]21	5	3	1.2
O=C(C[C@H]1CC[C@@H]2NC[C@H](O)COC[C@H]2O1)NCCN1CCCCC1	0	-6	5.7
O=C(C[C@@H]1C[C@H]2c3cc(NC(=O)Nc4ccc(C(F)(F)F)cc4)ccc3O[C@H]2[C@H](CO)O1)NCc1cccnc1	?	.	.
O=C(CC(F)(F)F)N1C[C@H]2[C@@H](c3ccccc31)[C@@H](CO)N2CC1CCCCC1	1	-4	5.1
CN1[C@@H]2c3ccc(/C=C/c4ccccc4)c(=O)n3C[C@H]1[C@H](CO)[C@H]2C(=O)NC1Cc2ccccc2C1	-6	-11	4.9
CNC[C@H]1Oc2c(NC(=O)Nc3c(C)noc3C)cccc2C(=O)N([C@@H](C)CO)C[C@@H]1C	-1	1	-2.0
CN1C(=O)c2cc(NC(=O)C3CC3)ccc2OC[C@@H]2O[C@H](CC(=O)NCc3cccc(F)c3)CC[C@@H]21	-4	3	-6.2
CC(C)CC#Cc1ccc([C@@H]2[C@@H](CO)N3C(=O)CN(C(=O)NC(C)C)C[C@H]23)cc1	1	-6	7.0
COc1ccc2c3c([nH]c2c1)[C@@H](CO)N(CC1CC1)CC31CN(C(=O)c2ccccc2)C1	?	.	.
O=C(C1CCC1)N1CC2(C1)[C@H](c1ccccc1)[C@@H](CO)N2CC1CCCC1	-4	-10	6.4
O=C(C[C@H]1CC[C@H]2[C@@H](COC[C@@H](O)CN2Cc2cccc(C(F)(F)F)c2)O1)NCCc1ccncc1	2	12	-9.6
C[C@@H]1CCCCO[C@@H](CN(C)CC2CCCCC2)[C@@H](C)CN([C@H](C)CO)C(=O)c2cc(NC(=O)CCCCCC(=O)Nc3ccccc3N)ccc2O1	-4	-7	2.3
Cc1noc(C)c1NC(=O)N(C)C[C@@H]1Oc2ccc(NC(=O)CCN3CCOCC3)cc2CC(=O)N([C@H](C)CO)C[C@H]1C	2	-2	3.8

Arranged by heavy-atom count (lowest first): part of the list above
SMILES	DUX4 inh	DUX4 inh difference	DUX4 inh control
O=C(C[C@H]1CC[C@@H]2NC[C@H](O)COC[C@H]2O1)NCCN1CCCCC1	0	-6	5.7
CNC[C@H]1Oc2c(NC(=O)Nc3c(C)noc3C)cccc2C(=O)N([C@@H](C)CO)C[C@@H]1C	-1	1	-2.0
CN1[C@@H]2c3ccc(/C=C/c4ccccc4)c(=O)n3C[C@H]1[C@H](CO)[C@H]2C(=O)NC1Cc2ccccc2C1	-6	-11	4.9
Cc1noc(C)c1NC(=O)N1C[C@@H](O)COC[C@H]2O[C@@H](CC(=O)N[C@H]3CCN(Cc4ccccc4)C3)CC[C@@H]21	5	3	1.2

Next section
SMILES	DUX4 inh	DUX4 inh difference	DUX4 inh control
C/C=C/c1ccc([C@H]2[C@@H](CO)N(C(C)=O)C23CN(C(=O)c2ccccc2)C3)cc1	2	5	-2.8
C[C@H]1CN([C@@H](C)CO)C(=O)Cc2cc(NC(=O)c3ccncc3)ccc2O[C@@H]1CN(C)Cc1ccc2c(c1)OCO2	4	1	3.9
C[C@@H]1CCCCO[C@@H](CN(C)C(=O)Cc2ccccc2)[C@@H](C)CN([C@@H](C)CO)C(=O)c2cc(N(C)C)ccc2O1	0	4	-4.0
C[C@@H]1CN([C@@H](C)CO)S(=O)(=O)c2ccc(C#Cc3ccccc3F)cc2O[C@H]1CN(C)C(=O)Cc1cccnc1	4	5	-0.7
CCCNC(=O)C[C@H]1CC[C@H]2[C@H](COc3ccc(NC(=O)c4ccc(Cl)cc4)cc3C(=O)N2C)O1	0	0	0.0
CCNC(=O)[C@H]1[C@H](CO)[C@H]2Cn3c(ccc(-c4ccncc4)c3=O)[C@@H]1N2Cc1ccccc1	5	5	-0.5
Cc1ccccc1S(=O)(=O)N1CC[C@@H]2[C@H]1c1cc(-c3ccc(C#N)cc3)ccc1N(C)[C@H]2CO	-7	-12	5.4
C[C@@H]1CN([C@@H](C)CO)C(=O)c2cc(NC(=O)NC3CCCCC3)ccc2O[C@@H](C)CCCCO[C@@H]1CN(C)C(=O)c1ccncc1	-2	0	-1.7
C[C@@H]1CCCCO[C@H](CN(C)C(=O)CCC(F)(F)F)[C@@H](C)CN([C@H](C)CO)C(=O)c2cc(NS(=O)(=O)c3cccs3)ccc2O1	0	-2	2.0
COCC#Cc1cnc2c(c1)C(=O)N([C@H](C)CO)C[C@H](C)[C@@H](CN(C)C(=O)CCN1CCCCC1)O2	0	0	0.2
CN(C)CC(=O)Nc1ccc2c(c1)[C@@H]1C[C@@H](CC(=O)NCCN3CCCCC3)O[C@H](CO)[C@@H]1O2	7	7	-0.1
COc1ccc(C#Cc2ccc3c(c2)[C@H]2[C@H](CCN2S(=O)(=O)c2ccccc2C)[C@H](CO)N3C)cc1	17	17	0.3
CN1c2ccc(-c3ccccc3)cc2[C@H]2[C@H](CCN2C(=O)Cc2ccccc2)[C@H]1CO	?	.	.
CC(C)C#Cc1ccc([C@@H]2[C@H](CO)N3C(=O)CN(S(=O)(=O)c4ccccc4)C[C@@H]23)cc1	4	4	0.3
O=C(C1CCCC1)N1CC2(C1)[C@@H](c1ccccc1)[C@@H](CO)N2Cc1nccs1	-3	-2	-0.1
COC(=O)[C@H]1N[C@H]2c3ccc(C4=CCCCC4)c(=O)n3C[C@H]2[C@@H]1CO	6	2	4.2
CCCC#Cc1ccc([C@H]2[C@H]3CN(C(=O)Nc4ccccc4)CC(=O)N3[C@H]2CO)cc1	13	5	7.2
C[C@@H]1CN([C@@H](C)CO)C(=O)c2c(c3ccccc3n2C)-c2ccccc2CO[C@H]1CN(C)S(=O)(=O)c1cn(C)cn1	19	20	-0.8
O=C(c1ccccn1)N1C[C@H]2[C@@H](c3ccccc31)[C@H](CO)N2C(=O)C1CCOCC1	-2	1	-2.5
COc1cccc(-c2ccc3c(c2)[C@@H]2[C@@H](CCN2C(=O)c2ccc(F)cc2)[C@@H](CO)N3)c1	?	.	.
CN1[C@H](CO)[C@H]2c3ccccc3N(C(=O)Nc3cc(F)ccc3F)C[C@H]21	1	2	-1.2
Cc1ccccc1S(=O)(=O)N(C)C[C@@H]1OCc2cnnn2CCCC(=O)N([C@H](C)CO)C[C@H]1C	-4	-5	1.6
CN(C[C@@H]1N[C@@H](CO)[C@@H]1c1ccc(-c2cccc(F)c2)cc1)S(C)(=O)=O	3	0	3.1
COc1ccc(NC(=O)N[C@@H]2CC[C@@H](CC(=O)NC3CCCCC3)O[C@H]2CO)cc1	4	4	0.3
C[C@@H]1CCCCO[C@H](CN(C)Cc2ccc(C(=O)Nc3ccccc3N)cc2)[C@@H](C)CN([C@H](C)CO)C(=O)c2cc(N(C)C)ccc2O1	1	-1	2.0
C[C@H](CO)N1C[C@H](C)[C@@H](CN(C)Cc2ccc(C(=O)Nc3ccccc3N)cc2)Oc2c(NC(=O)C3CCCCC3)cccc2C1=O	1	-1	1.4
CN1CCN(C(=O)C[C@@H]2CC[C@@H]3[C@H](COC[C@@H](O)CN3S(=O)(=O)c3cccc(Cl)c3)O2)CC1	9	0	9.1
COc1ccc2c3c([nH]c2c1)[C@@H](CO)N(S(=O)(=O)c1ccc(C)cc1)CC31CN(Cc2ccccc2)C1	-9	-1	-8.7
C[C@@H]1CN([C@@H](C)CO)C(=O)c2cc(NC(=O)Cc3ccccc3)ccc2O[C@H]1CN(C)C(=O)NC1CCCCC1	1	-3	4.8
CS(=O)(=O)N1[C@@H]2Cn3c(cccc3=O)[C@H]1[C@@H](C(=O)NCc1ccc(F)cc1)[C@@H]2CO	6	2	4.7
COc1cccc(NC(=O)N(C)C[C@H]2OCc3ccccc3-c3ccccc3C(=O)N([C@H](C)CO)C[C@H]2C)c1	8	5	3.2
O=C(C[C@@H]1CC[C@@H]2[C@H](COC[C@H](O)CN2Cc2nccs2)O1)NCc1ccc(F)cc1	10	10	0.2
O=C(c1ccccn1)N1CC(=O)N2[C@@H](CO)[C@@H](c3ccc(C#Cc4ccccc4)cc3)[C@@H]2C1	3	15	-12
O=C(Cc1ccncc1)N1C[C@@H]2N[C@H](C1)C2c1ccc(-c2ccc(F)cc2)cc1 (some centres not stated)	-4	-5	1.3
CN(C)CC(=O)N[C@@H]1C=C[C@@H](CC(=O)NCCN2CCCCC2)O[C@H]1CO	12	12	0.4
CCCNC(=O)N1[C@H](CO)[C@@H]2c3ccccc3N(C(=O)Nc3cccc(Cl)c3)C[C@@H]21	2	1	1.4
CNC[C@@H]1Oc2ccc(NC(=O)CCN3CCOCC3)cc2CC(=O)N([C@H](C)CO)C[C@H]1C	4	5	-1.7
C[C@@H]1CN([C@@H](C)CO)C(=O)CCCn2nncc2CO[C@H]1CN(C)C(=O)Cc1ccccc1	9	6	3.1
CC(=O)N1[C@H](C(=O)N2CCCCC2)[C@@H](CO)[C@@H]2Cn3c(ccc(C4=CCCCC4)c3=O)[C@@H]21	-1	-1	-0.1
COC(=O)[C@@H]1[C@@H](CO)[C@@H]2Cn3c(ccc(-c4ccccc4)c3=O)[C@@H]2N1CC1CCCCC1	?	.	.
N#Cc1ccc(-c2ccc3c(c2)[C@@H]2[C@@H](CCN2C(=O)C2CCCCC2)[C@H](CO)N3)cc1	-2	-4	2.1
CN(C)CC(=O)N[C@H]1CC[C@@H](CC(=O)NCCN2CCCCC2)O[C@@H]1CO	0	0	0.4
OC[C@@H]1[C@H](c2ccc(C#CC3(O)CCCC3)cc2)[C@H]2CN(Cc3ccncc3)CCCCN12	2	-4	6.8
O=C(NC[C@@H]1[C@H](c2ccccc2)[C@@H](CO)N1C(=O)Cc1ccncc1)C1CCC1	-4	2	-5.6
O=C(c1cnccn1)N1CC(=O)N2[C@H](C1)[C@@H](c1ccc(/C=C/c3ccccc3)cc1)[C@@H]2CO	-1	1	-2.5
COCCNC(=O)C[C@@H]1C[C@@H]2c3cc(NC(=O)NC4CCCC4)ccc3O[C@@H]2[C@H](CO)O1	8	5	3.8

Among those listed so far, these contain a Cl atom.
SMILES	DUX4 inh	DUX4 inh difference	DUX4 inh control
O=C(CN1CCOCC1)NCC[C@H]1CC[C@H](NS(=O)(=O)c2ccc(Cl)cc2)[C@H](CO)O1	7	5	2.5
CCCNC(=O)C[C@H]1CC[C@H]2[C@H](COc3ccc(NC(=O)c4ccc(Cl)cc4)cc3C(=O)N2C)O1	0	0	0.0
CN1CCN(C(=O)C[C@@H]2CC[C@@H]3[C@H](COC[C@@H](O)CN3S(=O)(=O)c3cccc(Cl)c3)O2)CC1	9	0	9.1
CCCNC(=O)N1[C@H](CO)[C@@H]2c3ccccc3N(C(=O)Nc3cccc(Cl)c3)C[C@@H]21	2	1	1.4
